D2 agonist: Beta-Arrestin HTS for Positive Allosteric Modulators of the Human D2 Dopamine Receptor: Agonists; D(2) dopamine receptor (Homo sapiens), P14416; DiscoveRx PathHunter D2 beta-arrestin, luminescence, 90 min; 100% = 57 uM dopamine signal; activation, % (test concentration not listed); 0.084% of 360,000 active; in the data active = activation above about 40%; inconclusive = about 15% to 40%; inactive = below about 15%; further: compound concentration not given in the record; the text of the record calls up to 30% inactive
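DiscoveRx PathHunter D2 beta-arrestin cells (2,100/well) attached overnight, then compound-stimulated 90 min at 37 C in HBSS/10 mM HEPES/0.1% Tween-20 buffer; beta-galactosidase complementation read by luminescence after 1 h at ambient temperature. Dopamine 57 uM final (EC100) as control.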
TRPML1 ag: qHTS for Agonists of the Human Mucolipin Transient Receptor Potential 1 (TRPML1) | Mucolipin-1 (Homo sapiens), Q9GZU1 | TRPML1-expressing cells, Ca2+ dye fluorescence, FDSS; host cell line not named in the record; reference of the full effect not given here | activation, % (concentration not given with the values) | 0.12% of 410,000 active | AID 624414, 2012; in the data active = activation above about 50%; inconclusive = about 30% to 50%; inactive = below about 30%; further: 0% is about no effect; the text of the record puts the active cut at 80%
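Tetracycline-induced TRPML1-DL cells are seeded and incubated overnight before loading with a no-wash Ca2+ dye and quencher. Agonist activity is taken from the 110 s fluorescence read following compound pin-transfer on an FDSS, before EC80 54-4 challenge.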
PINK1 modulator: A Quantitative High throughput Screen to Identify Chemical Modulators of PINK1 Expression; 0.2% of 410,000 active; Potency, µM (highest dose often 76.6 µM), inactives show at the highest dose activation (PINK1 increase), usual class: activators; PINK1 immunofluorescence, high-content cytometry, 24 h; AID 624263, 2012; active = well fitted activation curve with a large enough effect; inconclusive = small, poorly fitted or top-dose-only effect; inactive = flat fitted curve, though single readings scatter; cell line not stated here;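 further: potency means the concentration at half of the fitted maximal effect; % of control where 0% means no effect; nearly all actives have a fitted effect of over 65% in size; a mitochondrial uncoupler was the plate control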
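Stable cell line, 250 cells/well, 12 h attachment; compounds pinned at 5 concentrations, 24 h; CCCP control. Fixed with nuclear dye, primary antibodies 12 h at 10 degrees C, secondary plus cell stain; laser-scanning cytometer read.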
CtBP-E1A inh: qHTS Assay for Inhibitors of the CtBP/E1A Interaction. CtBP / adenovirus E1A interaction (AlphaScreen). AlphaScreen GST-E1A/His-CtBP binding, 1536-well; stronger effect = lower value; control for the full effect not named in the record. activity change, % (test concentration not listed). 0.49% of 340,000 active; in the data active means activity change below about -65%; inconclusive means about -30% to -65%; inactive means above about -30%; further: on the % scale 0 is the no-effect control and ±100 the full control effect; compound concentration not given in the record
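Steps: dispense buffer (Tris pH 8.0, NaCl 300 mM, TCEP 1 mM, BSA, Tween 20); add 5X protein mix (GST-E1A, His-CtBP, 125 nM each); pin 23 nL compound; 2 h at 37 °C, dark; add 5X beads (50 ug/mL); 1 h; read.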
Six1-Eya2 blk: qHTS Assay for Inhibitors of the Six1/Eya2 Interaction; AlphaScreen GST-Six1/His-Eya2 binding, biochemical; stronger effect = lower value; control for the full effect not named in the record; activity change, % (no concentration beside the values); 0.56% of 360,000 active; AID 651725, 2012; in the data active = activity change below about -65%; inconclusive = about -30% to -65%; inactive = above about -30%; further: on the % scale 0 is the no-effect control and ±100 the full control effect; compound concentration not given in the record
Target sequence (O00167 whole entry, looked up): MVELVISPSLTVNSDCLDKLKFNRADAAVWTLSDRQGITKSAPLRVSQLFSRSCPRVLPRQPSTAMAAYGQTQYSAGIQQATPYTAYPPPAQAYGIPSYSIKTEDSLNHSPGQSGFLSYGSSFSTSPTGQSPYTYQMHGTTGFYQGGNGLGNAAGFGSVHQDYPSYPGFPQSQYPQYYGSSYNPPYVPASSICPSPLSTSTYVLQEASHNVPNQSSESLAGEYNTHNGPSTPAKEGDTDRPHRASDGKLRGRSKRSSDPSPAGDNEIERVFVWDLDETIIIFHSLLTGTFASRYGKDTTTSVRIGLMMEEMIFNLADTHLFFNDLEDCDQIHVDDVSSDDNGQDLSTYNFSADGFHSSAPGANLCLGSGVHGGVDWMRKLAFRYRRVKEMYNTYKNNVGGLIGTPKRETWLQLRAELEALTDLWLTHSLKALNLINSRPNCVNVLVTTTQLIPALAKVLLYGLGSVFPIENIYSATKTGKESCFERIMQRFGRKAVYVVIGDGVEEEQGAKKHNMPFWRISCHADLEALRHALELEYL
Target sequence (Q15475 whole entry, looked up): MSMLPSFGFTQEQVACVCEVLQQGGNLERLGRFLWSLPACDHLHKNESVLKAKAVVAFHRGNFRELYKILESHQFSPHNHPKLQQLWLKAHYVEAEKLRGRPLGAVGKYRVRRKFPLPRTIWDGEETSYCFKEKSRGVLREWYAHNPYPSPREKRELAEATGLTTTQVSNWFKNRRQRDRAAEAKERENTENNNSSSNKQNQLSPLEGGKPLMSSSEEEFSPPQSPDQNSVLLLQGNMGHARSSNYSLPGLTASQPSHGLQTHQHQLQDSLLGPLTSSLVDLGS
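Homogeneous AlphaScreen proximity assay pairing GST-Six1 with His-tagged Eya2 (added as 5X mix: 250 nM and 500 nM) in 50 mM Tris pH 8.0, 300 mM NaCl, 1 mM TCEP. Glutathione donor and nickel acceptor beads; 1 h, 37 °C, dark.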
TRPML1 blocker: qHTS for Inhibitors of the Human Mucolipin Transient Receptor Potential 1 (TRPML1); Mucolipin-1 (Homo sapiens), Q9GZU1; activity change, negative = inhibition, % (no concentration beside the values); AID 624415, 2012; 0.02% of 390,000 active; TRPML1-inducible cells, Ca2+ dye fluorescence, FDSS; stronger effect = lower value; inhibition of EC80 agonist-evoked calcium signal; in the data active means activity change below about -50%; inconclusive means about -30% to -50%; inactive means above about -30%;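 further: stimulus is agonist 54-4 at its EC80 concentration; on the % scale 0 is the no-effect control and ±100 the full control effect; compound concentration not given in the record; the text of the record puts the active cut at -80%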
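Tet-induced TRPML1-DL cells loaded with Ca8 no-wash calcium dye were read kinetically on FDSS. Compound addition was followed by EC80 agonist 54-4 (4 uM final); inhibition was read over 110 s.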
Numbers without * were called inactive; ? = inconclusive; . = no result given; & = joins results of further samples; [ ] = remark or other dose.

Each structure is followed by: D2 agonist	TRPML1 ag	PINK1 modulator	CtBP-E1A inh	Six1-Eya2 blk	TRPML1 blocker
> CCCC(=O)NCc1cc(-c2nn(C)c(=O)c3ccccc23)ccc1C
→ -2.3	0.0	-0.8%	-1	-2	13
> CCOC(=O)c1c(O)c2cccc3c2n(c1=O)CC3
→ 8.5	0.4	-0.6%	3	10	10
> COc1ccc(CNC(=O)CCCn2c(=O)c3cccn3c3cccnc32)cc1
→ -2.5	-0.2&-1.0	2.4%&7.2%	2	-4	-4&17
> CC(=O)c1ccc(N2CCN(C(=O)Nc3ccc(C)cc3)CC2)cc1
→ -5.7	2.4&0.0	-1.6%&1.8%	.	2	-24&5
> O=c1[nH]c(NCCO)nnc1Cc1ccccc1
→ 0.1	0.5	-0.3%	.	5	11
> Cc1nc2cc3ccccc3cc2c(=O)[nH]1
→ -2.7	-0.1	-6.0%[38.3 µM]	-5	-11	5
> CCN(CC)CCOC(=O)c1ccc(Cl)cc1
→ -4.8	1.2	-2.4%	-1	-5	21
> CCOc1ccc(S(=O)(=O)N2CCCCC2)cc1NC(=O)Cc1ccccc1
→ 6.1	3.0	3.6%	2	12	25
> O=C(Cc1ccc(F)cc1)N1CCC(N2CCC(C(=O)N3CCOCC3)CC2)CC1
→ -1.5	-0.4	0.6%	-5	6	-6
> O=C(CN1CCN(c2ccccc2O)CC1)Nc1ccccc1C(=O)NCCc1ccccc1
→ 0.9	0.0	-0.7%	-5	0	-7
> CC(C)=CCC/C(C)=C/CC/C(C)=N/O
→ -0.7	0.7	3.8%[38.3 µM]	4	4	7
> CCOC(=O)C1Cn2c(nc3c(c2=O)C2(CCCC2)Cc2ccccc2-3)S1 (stereo not drawn)
→ -3.9	0.4	0.7%	-4	7	-11
> CCn1c(=O)c(-c2ccccc2)c(O)c2ccccc21
→ -4.7	-0.6	3.5%	3	-3	-7
> O=C(NC1CCCCCCC1)c1ccc(CNc2c(N3CCOCC3)c(=O)c2=O)cc1
→ -0.7	-0.6	-0.3%	4	-6	-6
> O=c1c2[nH]c3ccc(Cl)cc3c2ncn1Cc1ccccn1
→ -2.4	0.2	?	1	4	14
> CCC/C=N/NC(=O)c1ccc(F)cc1
→ -4.8	0.4	-0.2%	2	8	-9
> COc1cc(OC)cc(C(=O)OCC(=O)Nc2sccc2C(N)=O)c1
→ 2.9	1.0	1.8%	-3	-10	-1
> CCOc1ccc(-n2c(SCC(=O)NC3CCS(=O)(=O)C3)nnc2-c2cccnc2)cc1 (stereo not drawn)
→ -3.5	-0.2	1.1%	20	5	27
> Cc1nc(N2CCN(c3ccccn3)CC2)c2c(C)c(C(=O)Nc3ccccc3F)sc2n1
→ -0.7	-0.5	-0.7%	0	19	-7
> COc1cccc(COC(=O)CSCC(=O)Nc2cccc(C)c2)c1OC
→ -3.9	1.0	-1.2%	13	1	-6
> CC(C)NC(=O)c1ccc2c(c1)N(CC(=O)N1CCCC1)C(=O)C(C)(C)O2
→ 1.9	0.2	3.4%	0	-2	10
> COc1cccc(NC(=O)Nc2cc(C)ccc2F)c1
→ -0.5	-0.7	0.0%	5	5	-8
> COc1ccc(NS(=O)(=O)c2ccc(O)c(NC(=O)c3ccc(S(=O)(=O)N4CCCC4)cc3)c2)cc1
→ 2.6	0.4	-0.5%	-6	-4	-4
> N#CC1=C(N)N2C(=C(C#N)C13CCN(Cc1ccccc1)CC3)Nc1ccccc12
→ -1.7	1.0	-0.9%[38.3 µM]	-3	?	-4
> O=C(OCC(=O)N1CCN(S(=O)(=O)c2ccc(Cl)cc2)CC1)C1CC1
→ -1.6	-0.3	0.7%	10	0	7
> O=C(CSc1ccccc1F)Nc1ccc(N2CCOCC2)cc1
→ -2.4	-0.2	-0.8%	-3	3	0
> O=c1[nH]c(SCc2ccc(Cl)cc2)nc2ccccc12
→ 1.8	0.3	8.4%	3	3	-12
> Cc1ccc(/C(O)=C2\C(=O)C(=O)N(CC(C)O)C2c2ccccn2)cc1 (stereo not drawn)
→ -3.2	-0.2	1.6%	-2	3	24
> NNC(=O)c1cc(-c2cccs2)nc2ccccc12
→ -2.1	-0.5	6.2%	.	-10	4
> CSc1ccccc1C(=O)NCc1ccccc1C
→ 0.3	0.2	-0.2%	-15	10	30

Each structure is followed by: D2 agonist	TRPML1 ag	PINK1 modulator	CtBP-E1A inh	Six1-Eya2 blk	TRPML1 blocker
> CCN(C(=O)Cn1nc2c3cc(F)ccc3n(Cc3cccc(C)c3)cc-2c1=O)c1cccc(C)c1
→ .	2.7	4.1%	.	.	0
> CN1CCN(C(=O)c2ccccc2NC(=O)C(C)(C)C)CC1
→ -2.2	-0.3	0.5%	5	6	-13
> O=S(=O)(c1ccc(F)c(F)c1)N1CCCc2ccccc21
→ 4.6	-0.6	2.1%	.	8	21
> CCOC(=O)C1CCN(S(=O)(=O)c2ccc3c4c(cccc24)C(=O)N3CC)CC1
→ 2.8	0.7	2.9%	-10	-29	-3
> Nc1nc2c(s1)CCCCCCCCCC2
→ 0.0	1.1	6.2%	-3	-2	12
> Cc1ccc(Nc2c(F)c(F)c(F)c(F)c2C(=O)O)c(C)c1
→ 3.9	1.1	2.2%	-6	1	12
> O=C(Nc1cc(Cl)cc(Cl)c1)c1cccc(OC(F)F)c1
→ 1.7	0.8	?	21	20	12
> CCCCN1CC(COCc2ccccc2)Oc2cccc(Oc3ccc(C(C)C)cc3)c2S1(=O)=O (stereo not drawn)
→ -0.5	0.3	-0.1%	11	0	5
> Cc1cc(C)c2oc(C(=O)N3CCN(C)CC3)cc(=O)c2c1
→ 1.4	0.5	0.5%	-3	2	-12
> O=[N+]([O-])c1cc(C(F)(F)F)cc([N+](=O)[O-])c1Sc1n[nH]c(C(F)(F)F)n1
→ 8.2	0.4	-0.8%	-3	-18	16
> COc1ccccc1-c1cc2nc(NCc3cccc(Cl)c3)ccn2n1
→ -3.6	0.2	7.8%	3	-3	.
> COc1cccc(/C=N/NC(=O)c2ccc(N3CCCC3=O)cc2)c1
→ -5.2	0.6	5.2%	-4	-12	-12
> COc1ccc2c(c1)c(/C=C/c1cc[n+](C)cc1)cn2C
→ -3.6	3.1	6.6%	.	4	-3
> O=C(CSc1nc2ccccc2n1CC(=O)N1CCCC1)Nc1nccs1
→ 1.2	-0.1	0.6%[38.3 µM]	-5	0	-6
> COc1cc(C=O)ccc1Oc1nnnn1-c1ccc(C(N)=O)cc1
→ -0.6	0.0	-4.1%[38.3 µM]	-17	0	-6
> O=S(=O)(c1ccc(Oc2ccc(Cl)cc2)nc1)N1CCOCC1
→ 0.8	2.1	5.3%	-8	8	32
> C=CCNC(=O)/C(C#N)=C/c1ccc2c(c1)OCCO2
→ -6.3	-0.8	1.2%	0	7	-1
> NC(=O)CSc1nnc(-c2ccc(O)cc2)n1Cc1ccco1
→ -0.3	-0.5	-0.7%	-90*	-87*	-6
> C#CCNC(=O)C1=C[C@H](c2ccccc2)[C@@H](CCCO)[C@H](OCC)O1
→ -1.6	-0.8	1.6%	4	3	8
> Cc1ccc2c(c1)CCCN2C(=O)c1ccc2c(c1)OCO2
→ -3.6	1.4	0.2%[38.3 µM]	4	2	-4
> NC(COCc1ccccc1)c1csc(Nc2nncc3ccccc23)n1 (stereo not drawn)
→ 6.5	-0.2	-0.2%	-28	-1	.
> Clc1ccc(-n2ncc3c(N4CCCC4)ncnc32)cc1
→ -2.4	-0.1	-1.3%	12	19	-1
> CCCN1C(=O)/C(=C/c2nc3ccccc3c(=O)[nH]2)c2ccccc21
→ -2.6	-0.5	7.4%	3	12	23
> CC(=O)N1c2cc3ccccc3cc2N(C(C)=O)c2cc3ccccc3cc21
→ -1.9	2.6	7.4%	-5	-3	-15
> Cc1ccc(-n2c(C)cc(C(=S)N3CCOCC3)c2C)cc1C
→ -3.3	1.0	-1.0%[38.3 µM]	-4	-15	37
> N#Cc1cccc(NC(=O)c2ccccc2C(=O)O)c1
→ -1.0	-0.2	-0.9%[38.3 µM]	2	7	1
> CC(C)C(NC(=O)c1ccc(C(C)(C)C)cc1)C(=O)NCc1ccccn1 (stereo not drawn)
→ -2.0	0.6	1.8%	0	13	-2
> COc1ccc(NC(=O)CN2C(=O)NC3(CCCCCC3)C2=O)cc1Cl
→ 0.1	-0.2	-0.6%	-16	22	-2
> CC(C)(C)C(=O)[C@@H]1[C@@H]2C(=O)N(C3CCCCC3)C(=O)[C@@H]2[C@H]2c3ccccc3C=CN12
→ -4.6	0.2	.	-15	-14	-6
> COc1ccc(CNS(=O)(=O)c2cc3c4c(c2)C(C)C(=O)N4CCC3)cc1 (stereo not drawn)
→ 8.0	0.5	0.3%	.	-4	-7

Each structure is followed by: D2 agonist	TRPML1 ag	PINK1 modulator	CtBP-E1A inh	Six1-Eya2 blk	TRPML1 blocker
> Cc1cc(C)c(NS(=O)(=O)c2ccc(NC(=O)c3cccs3)cc2)c(C)c1
→ 4.8	0.3	8.9%	6	1	13
> CC1(C(=O)NS(=O)(=O)c2cccc(OC(F)F)c2)CCN1C(=O)CC1CCCC1 (stereo not drawn)
→ -1.3	-0.3	0.6%	4	12	.
> CC1CCN(S(=O)(=O)c2ccccc2[N+](=O)[O-])CC1
→ 4.4	1.2	2.4%	-1	8	2
> Cc1ncccc1C(=O)N1CCCC(CNC(=O)c2ccc(-c3ccccc3)cc2)C1 (stereo not drawn)
→ -2.4	0.0	0.0%	-4	0	54
> CCc1nc(SCC(=O)Nc2ccc(C(=O)O)cc2)n[nH]1
→ -5.0	-1.1	-0.1%	24	27	1
> COc1nccnc1NS(=O)(=O)c1ccc(NC(=O)c2ccc(F)cc2)cc1
→ 1.1	0.3	-0.1%	-2	-1	-13
> CCOc1ccc(CNC(=O)CCCC(=O)n2ncc3cc(C)ccc32)cc1
→ 1.3	1.4	-0.3%	4	12	2
> Cc1ccccc1Cn1c(CCCNC(=O)C2CCCCC2)nc2ccccc21
→ .	1.1	0.1%	.	.	30
> Fc1ccc(-c2noc(-c3ccc4c(c3)CCO4)n2)cc1
→ -2.5	0.8	1.5%	8	5	-13
> CC(NC(=O)CN1C(=O)COc2ccccc21)c1ccccc1 (stereo not drawn)
→ -1.7	0.5	.	10	-2	-4
> Cc1ccc2[nH]c(=O)c(CNS(=O)(=O)c3ccccc3)c(-c3ccccc3)c2c1
→ -0.5	2.5	7.7%	-3	-4	1

Complete entries as entered above. Screens in order: D2 agonist | TRPML1 ag | PINK1 modulator | CtBP-E1A inh | Six1-Eya2 blk | TRPML1 blocker
`COc1nccnc1NS(=O)(=O)c1ccc(NC(=O)c2ccc(F)cc2)cc1` across the screens: 1.1 | 0.3 | -0.1% | -2 | -1 | -13
`CC1CCN(S(=O)(=O)c2ccccc2[N+](=O)[O-])CC1` across the screens: 4.4 | 1.2 | 2.4% | -1 | 8 | 2

Source: PubChem (National Center for Advancing Translational Sciences (NCATS))
